# Vaccinia mCherry: vaccinia inhibition (mCherry reporter) | 310,000 compounds, 0.63% hits | Vaccinia virus mCherry reporter infection, fluorescence; about a quarter of the inactives have no number | Potency, µM (series often up to 36.5 µM), inactives show top-dose activity change, negative = inhibition, most hits filed as inhibitors | AID 720579; active = well fitted inhibition curve with a large enough effect; inconclusive = small, poorly fitted or top-dose-only effect; inactive = no such curve, though single readings can be large or run the other way; tested in A549 cells; further: nearly all actives have a fitted effect of over 35% in size; inactives centre near -10
# VACV Venus inh: vaccinia inhibition (Venus reporter) | AID 720580 | Vaccinia virus Venus reporter expression, fluorescence | 330,000 compounds, 0.46% hits | Potency, µM (series often up to 36.5 µM), for the others: at the highest dose activity change, negative = inhibition, most hits filed as inhibitors; active means well fitted inhibition curve with a large enough effect; inconclusive means small, poorly fitted or top-dose-only effect; inactive means no such curve, though single readings can be large or run the other way; tested in A549 cells; further: nearly all actives have a fitted effect of over 30% in size; inactives centre near -10
# Starred values were filed as active, the others as inactive; i = inactive; ? = inconclusive; nt = not tested or not shown; & = joins results of further samples; [ ] = another dose, or the depositor's remark. On the % scale 0 is the no-effect control and ±100 the full control effect; potency means the concentration at half of the fitted maximal effect.
no.	SMILES	Vaccinia mCherry	VACV Venus inh
1	COc1ccc(-c2nnc(C(C)Nc3cccc(C(=O)NC4CC4)c3)o2)cc1 (stereo not given)	-15%	-9%
2	O=C(NCC(=O)N(c1cccc(F)c1)C(C(=O)NC1CCCC1)c1ccncc1)c1cccs1 (stereo not given)	-8%	-5%
3	O=C(Cn1nnc(-c2ccccc2)n1)c1ccccc1	-3%	2%
4	COc1ccc(CC2NC[C@H](O)[C@H]2OC(C)=O)cc1 (stereo not given in full)	0.79µM*	1µM*
5	COc1cccc(CN(C)C(=O)c2cc(COc3c(F)cccc3F)on2)c1	i	-7%
6	Cn1c(=O)c2cc(S(=O)(=O)NC(Cc3ccccc3)C(=O)Nc3ccc(F)cc3)ccc2n(C)c1=O (stereo not given)	-11%	3%
7	COc1cc(NC(=O)CN2C(=O)CN(C)C2=O)c(C)cc1[N+](=O)[O-]	-3%	2%
8	Cc1cc(F)ccc1-c1cc(C(=O)NCc2cc(C(F)(F)F)cc(C(F)(F)F)c2)[nH]n1	i	-17%
9	Cc1nc2ccn(Cc3cccs3)c(=O)c2cc1C(=O)NCc1ccccc1	-16%	-17%
10	Cn1c(=O)c2c(nc(NCCc3ccccc3)n2Cc2ccccc2Br)n(C)c1=O	-23%	-11%
11	C=CCNC(=S)NNc1nc2sc3c(c2c(=O)[nH]1)CC(C)(C)OC3	?	-16%
12	CCOC(=O)c1[nH]nc2c1C(=O)N(Cc1ccccc1)C2=O	nt	-16%
13	CSc1nc2ccc(NS(=O)(=O)c3ccc4c(c3)OCCO4)cc2s1	nt	-14%
14	NC(=O)[C@@H]1CC2(CC(c3cccc(NC(=O)CC(c4ccccc4)c4ccccc4)c3)=NO2)CN1C(=O)c1ccc(Cl)cc1 (stereo not given in full)	?	?
15	O=C(C[n+]1ccc(C(=O)N/N=C/c2ccc(Cl)cc2Cl)cc1)c1ccccc1	?	-7%
16	O=C(CNC(=O)c1ccccc1)OCC(=O)c1cccs1	-30%	-4%
17	Cc1ccc(CNC(=O)CN2C(=O)CCc3cc(S(=O)(=O)N4CCCCC4)ccc32)cc1	-18%	-16%
18	CC1(C)CC(=O)C2=C(C1)N(Cc1cccnc1)C(=O)C2(NC(=O)c1cccnc1)C(F)(F)F (stereo not given)	-24%	-21%
19	CCc1nnc(NC(=O)CCC(=O)NCCc2ccc(OC)c(OC)c2)s1	-7%	-3%
20	Cc1c(C(=O)NCc2ccc(F)cc2)oc2ccc(S(=O)(=O)N3CCCCC3)cc12	?	?
21	Cc1ccc(NC(=O)Cn2sc3ccccc3c2=O)cc1	i	?
22	Cc1nn(Cc2ccccc2)c(C)c1NC(=O)Cn1nc([N+](=O)[O-])c(Cl)c1C	-14%	-13%
23	CCc1nc2cc(Cl)c(Cl)cc2nc1CC	i	0%
24	COc1cc(CNC(=O)CSCc2nc3cccnc3n2C2CCCCC2)cc(OC)c1OC	-4%	-4%
25	CCn1nnnc1SCCSc1nnnn1CC	i	2%
26	CCCCNc1ccc(C(CC(N)=O)NC(=O)c2cc(C)cc(C)c2)cc1[N+](=O)[O-] (stereo not given)	i	0%
27	CCCC(=O)C1C(=O)NC(=O)NC1=O	nt	-9%
28	N#CCc1ccc(OC(=O)c2ccncc2)cc1	3%	0%
29	CCC(c1nnc(SCC(=O)Nc2cc(S(C)(=O)=O)ccc2Cl)n1Cc1ccccc1)N(C)C (stereo not given)	i	-11%
30	Cc1ccc(F)c([C@H]2[C@@H]3C=CCC[C@@]3(C)C(=O)N2Cc2ccccc2)c1	i	-23%
31	O=C(CNC(=O)c1ccccc1)OCC(=O)c1ccc2ccccc2c1	17%	13%
32	CN1C(=O)C(CC(=O)NCCc2ccccc2)N(NC(=O)c2cccc(F)c2)C1=S (stereo not given)	i	2%
33	COc1cccc(CNC2CN3CCC2CC3)c1OC (stereo not given)	i	-8%
34	COc1ccc(CN2C(=O)C(CC(=O)NCCCN(C)C)CC(C(=O)N3CCCCCC3)=C2C)cc1 (stereo not given)	-7%	-6%
35	CCOP(=S)(OCC)Oc1ccc2c(C)c(Cl)c(=O)oc2c1	-24%&-13%	-17%&-7%
36	Cc1ccc(OCC(=O)N2CCCC(N3CCN(c4ccc(F)cc4)CC3)C2)cc1 (stereo not given)	?	-10%
37	COc1cc2c(cc1OC)C(c1cc3cc4c(cc3[nH]c1=O)OCO4)N(C(=O)C(C)C)CC2 (stereo not given)	-3%	3%
38	CCc1nc(-c2ccc(OC)c(OC)c2)cc2cc(OC)c(OC)cc12	-8%	-7%
39	Cc1cc(=O)nc2c3ccccc3n(CC(=O)NCCC3=CCCCC3)n12	-5%	-1%
40	O=C(c1ccc2c(c1)N(Cc1c(F)cccc1Cl)C(=O)c1ccccc1S2)N1CCCC1	-9%	-7%
41	O=C(Nc1ccccc1OC(F)F)c1ccc(-n2cncn2)c([N+](=O)[O-])c1	-20%	-9%
42	CCc1ccc(NC(=O)CCNS(=O)(=O)c2ccc3c(c2)oc(=O)n3C)cc1	-8%	2%
43	CN(C)CCNC(=O)Cc1ccc(NC(=O)N2CCCCc3ccccc32)cc1	-9%	0%
44	N#Cc1c(NC(=O)c2ccccc2)sc2c1CCC2	?	?
45	O=C(NCCc1nc2ccccc2n1CCCOc1ccc2ccccc2c1)C1CCCCC1	3.2µM*	?
46	COc1cc(C(=O)COC(=O)C2CC2(Cl)Cl)cc(OC)c1OC (stereo not given)	i	-8%
47	O=C(CN1CCN(S(=O)(=O)c2ccc(Br)cc2)CC1)Nc1ccc(F)cc1	nt	-19%
48	OC(CCNCCc1c[nH]c2ccccc12)C(F)(F)F (stereo not given)	-10%	-5%
49	Cc1ccc(C(=O)NCC(c2ccc3c(c2)OCO3)N2CCN(C)CC2)cc1C (stereo not given)	-8%	-12%
50	Cc1nn(-c2ccc(N3CCCC3)nn2)c(C)c1CCC(=O)Nc1ccc(F)c(Cl)c1	-6%	-10%

# Going on with the list:
no.	SMILES	Vaccinia mCherry	VACV Venus inh
51	O=C(NCC(c1ccco1)N1CCc2ccccc21)C(=O)Nc1ccccc1F (stereo not given)	-10%	-30%
52	CN(c1ccc(OCC(=O)Nc2cc(Cl)ccc2C(=O)O)cc1)S(=O)(=O)c1ccc(F)cc1	-8%	2%
53	Cc1cc(C)c2nc(-c3ccccn3)cc(C(=O)Nn3cnnc3)c2c1	4%	5%
54	C[C@H](NC(=O)c1[nH]cnc1C(=O)N[C@H](C)c1ccccc1)c1ccccc1	-25%	-11%
55	O=C(C[C@@H]1C[C@@H]2c3cc(NC(=O)C4CCOCC4)ccc3O[C@@H]2[C@H](CO)O1)NCc1ccccn1	-14%	-3%
56	COc1cc(C(=O)ONC(=O)c2ccc(OC(F)F)cc2)cc(OC)c1OC	-19%	-7%
57	COc1ccc(-c2cc(C#N)nc(NN)n2)cc1	-16%	-24%
58	Cc1ccc2c(CC(=O)OC(C)C(=O)NCc3ccc4c(c3)OCO4)coc2c1 (stereo not given)	-17%	-5%
59	O=C(Nc1nnc(S(=O)(=O)N2CCCCCC2)s1)c1ccc(Cl)cc1	-9%	-13%
60	COc1ccc(C2c3[nH]c4ccccc4c3CCN2C(=O)c2ccc(=O)n(C)n2)c(F)c1 (stereo not given)	?	-12%
61	O=C(CCCSc1nc2ccccc2[nH]1)Nc1nnc(C2CC2)s1	i	-16%
62	COc1cc(-c2coc3c(C(=O)Nc4ccc(C(C)C)cc4)cccc23)ccc1O	i	-8%
63	O=[N+]([O-])c1ccc(CN2CCN(Cc3c[nH]c4ccccc34)CC2)cc1	-23%	-4%
64	N=c1n(CCCOc2ccccc2Cl)c2ccccc2n1CC(N)=O	-28%	?
65	CCOC(=O)C(=O)NC(C)c1ccccc1 (stereo not given)	-7%	1%
66	CCCCOc1ccc(NC(=O)Cn2nnnc2-c2ccccc2F)cc1	1%	2%
67	CCOC(=O)N1CCC(NC(=O)c2oc3c(C)c(C)ccc3c2C)CC1	?	?
68	CC1(C(=O)NCCC#N)CCN1C(=O)c1ccccc1CCc1ccccc1 (stereo not given)	-3%	3%
69	COc1ccc(N2CCN(C(=O)COC(=O)Cc3ccc(F)cc3)CC2)cc1	-4%	-15%
70	COc1ccc(NC(=O)C[C@H]2C(=O)N(c3ccc(OC)cc3)C[C@@H]2CSC)cc1	-11%	-12%
71	COC(=O)/C=C1\NCCNC1=O	-6%	-3%
72	CCCCCN(C(=O)CCC(=O)OCC(=O)N(C)Cc1ccccc1C)c1c(N)n(CCCC)c(=O)[nH]c1=O	-8%	-13%
73	O=C(Cc1ccc(F)cc1)NCCS(=O)(=O)N1CCN(c2ccccc2)CC1	i	?
74	Cc1ccc(S(=O)(=O)N2CCC(C(=O)Nc3ccccc3N3CCCC3)CC2)c(C)c1	-7%	-24%
75	CC(C)C(c1nnnn1Cc1ccccc1)N1CCC(C(N)=O)CC1 (stereo not given)	nt	-16%

# Screen by screen, from the results shown:
# Vaccinia mCherry, nos. 57–64, in order: -16%, -17%, -9%, ?, i, i, -23%, -28%

# Back to the main list; the 4 compounds before the break are reprinted first.
no.	SMILES	Vaccinia mCherry	VACV Venus inh
72	CCCCCN(C(=O)CCC(=O)OCC(=O)N(C)Cc1ccccc1C)c1c(N)n(CCCC)c(=O)[nH]c1=O	-8%	-13%
73	O=C(Cc1ccc(F)cc1)NCCS(=O)(=O)N1CCN(c2ccccc2)CC1	i	?
74	Cc1ccc(S(=O)(=O)N2CCC(C(=O)Nc3ccccc3N3CCCC3)CC2)c(C)c1	-7%	-24%
75	CC(C)C(c1nnnn1Cc1ccccc1)N1CCC(C(N)=O)CC1 (stereo not given)	nt	-16%
76	Cc1cccc(OCC(=O)N2CCC(c3nc4ccccc4o3)CC2)c1C	5%	-8%
77	CC(C)(C)OC(=O)NCc1ccc(NC(=O)c2nc[nH]c2C(=O)N[C@@H](Cc2ccccc2)C(=O)OC(C)(C)C)cc1	?	?
78	O=S(=O)(c1ccccc1)N1CCN(C2CCCCCCC2)CC1	-10%	-12%
79	Cc1nn(C)c2c1c(-c1ccccc1)cc(=O)n2Cc1ccc(Cl)cc1	4%	0%
80	CCOC(=O)c1c(C)[nH]c(CCC(=O)Nc2cc(Cl)ccc2OC)c1C	-4%	-13%
81	CC(C)NC(=O)N(C)C[C@@H]1OCc2ccccc2-c2c(n(C)c3ccccc23)C(=O)N([C@@H](C)CO)C[C@@H]1C	i	-11%
82	O=C(c1ccco1)N1CCN(Cc2cccnc2)CC1	-8%	-6%
83	Cc1ccc(S(=O)(=O)N[C@H](C(=O)N2CCC(C(=O)NCC(=O)O)CC2)C(C)C)cc1	-26%[1.46 µM]	-4%
84	COc1ccc(NC(=O)C2CC(=O)OC23CCOC(C)(C)C3)cc1 (stereo not given)	i	5%
85	COc1ccc(CNC(=O)c2ccc3c(c2)N(Cc2ccccc2F)C(=O)c2ccccc2S3=O)cc1 (stereo not given)	-1%	-1%
86	COC(=O)CSc1nc(NC(C)C)nc(N(C)C)n1	i	-12%
87	COc1ccccc1C1NC(=O)NC(C)=C1C(C)=O (stereo not given)	i	-15%
88	COc1cc(NS(=O)(=O)c2cc3[nH]c(=O)[nH]c3cc2C)cc(OC)c1OC	-8%	-6%
89	O=C1c2ccccc2C(=O)N1CCN1CCOCC1	-3%	-5%
90	Cc1ccnc(N2C(=O)c3cccc4c([N+](=O)[O-])ccc(c34)C2=O)c1	-8%	-5%
91	CSc1nc2sc3c(c2c(=O)n1-c1ccccc1C)CCCC3	-21%	-6%
92	Cc1ccc(NC(=O)COc2cccc(C)c2C)cc1S(=O)(=O)N1CCCCCC1	i	-5%
93	CC(C)Cn1c(=O)c2ccccc2n2c(CCC(=O)N3CCN(c4ccccc4)CC3)nnc12	-23%	-18%
94	CC(=O)NC1=NN(C(C)=O)C(C)(CCS(=O)(=O)c2ccc(Cl)c(Cl)c2)S1 (stereo not given)	-21%	-11%
95	N#Cc1c(SCC(=O)Nc2cccc(C(F)(F)F)c2)sc2c(O)cc(=O)[nH]c12	-9%	-4%
96	O=C(NCc1ccc(Cl)s1)C1CCC(=O)N(CCc2ccccn2)C1 (stereo not given)	-13%	-2%
97	O=C(COC(=O)c1cc(Cl)ccc1Cl)NC1CCCC1	-14%	-29%
98	O=C(NCC(c1cccs1)N1CCOCC1)c1ccccc1NS(=O)(=O)c1ccc(Br)cc1 (stereo not given)	-1%	-18%
99	CCc1cc(=O)oc2cc(C)cc(OCC(=O)N3CCC[C@@H]3C(=O)O)c12	1%	1%
100	Cn1nc(-c2ccccc2)c(/C=N/O)c1Cl	-9%	-1%

# Of the compounds above, these have bromine.
no.	SMILES	Vaccinia mCherry	VACV Venus inh
10	Cn1c(=O)c2c(nc(NCCc3ccccc3)n2Cc2ccccc2Br)n(C)c1=O	-23%	-11%
47	O=C(CN1CCN(S(=O)(=O)c2ccc(Br)cc2)CC1)Nc1ccc(F)cc1	nt	-19%
98	O=C(NCC(c1cccs1)N1CCOCC1)c1ccccc1NS(=O)(=O)c1ccc(Br)cc1 (stereo not given)	-1%	-18%

# (continued)
no.	SMILES	Vaccinia mCherry	VACV Venus inh
101	COc1ccc(C(=O)Nc2ccc3c(c2)N(C)C(=O)c2ccccc2S3)cc1OC	?	-19%[7.34 µM]
102	CCOC(=O)N1CCC(N2CCN(S(=O)(=O)CC)CC2)CC1	i	0%
103	COc1cc2c(cc1[N+](=O)[O-])n(C(C)C)c(=O)n2C(C)C	-9%	-11%
104	O=S(=O)(Nc1ncn[nH]1)c1ccc(Cl)cc1	-14%	-7%
105	COc1ccc2c(c1)C(c1cccs1)=NNC(c1cccnc1)=N2	i	-14%
106	O=C(Cc1ccc(NS(=O)(=O)c2ccc(F)cc2)cc1)NCc1ccccc1	nt	?
107	COc1ccccc1CNC(=O)c1cc(C2CC2)nc2c1cnn2C(C)C	-2%	-22%
